Assay outcomes deposited in PubChem BioAssay by Broad Institute.
AF4-AF9 inh – blocks AF4 peptide binding to human AF9; P42568; AlphaScreen, biotin-AF4 peptide binding to FLAG-AF9; AID 651704; inhibition, % at 10 µM; 350,000 tested, 0.47% active;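 active = every replicate reaching a set inhibition limit, whatever the replicate mean, cut at about 25% in these data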;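 note: 0% = plate neutral control median and 100% = total signal loss; the record names both 10 and 1 µM as test concentration; the first replicate is given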
Target sequence (P42568 whole entry, looked up): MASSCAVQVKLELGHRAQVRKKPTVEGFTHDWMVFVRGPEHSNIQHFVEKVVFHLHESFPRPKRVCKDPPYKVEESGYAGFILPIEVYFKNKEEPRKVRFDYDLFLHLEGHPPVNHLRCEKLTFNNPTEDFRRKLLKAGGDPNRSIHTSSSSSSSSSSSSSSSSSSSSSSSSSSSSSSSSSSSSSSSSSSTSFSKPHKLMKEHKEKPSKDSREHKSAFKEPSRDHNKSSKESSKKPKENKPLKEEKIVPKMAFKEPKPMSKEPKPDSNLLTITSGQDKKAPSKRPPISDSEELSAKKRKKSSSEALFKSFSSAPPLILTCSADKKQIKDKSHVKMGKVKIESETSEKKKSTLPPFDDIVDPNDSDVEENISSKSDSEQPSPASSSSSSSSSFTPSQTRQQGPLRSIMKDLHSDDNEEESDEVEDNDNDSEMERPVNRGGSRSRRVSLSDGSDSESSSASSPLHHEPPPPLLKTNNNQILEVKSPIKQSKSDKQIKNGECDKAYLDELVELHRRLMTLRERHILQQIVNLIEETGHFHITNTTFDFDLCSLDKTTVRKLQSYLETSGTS
rRNA inh HTS – inhibits bacterial ribosomal RNA function over humanized ribosomes; E. coli WT GFP vs humanized-ribosome RFP mutants, fluorescence, 24 h; active compounds read low; DMSO median 0, no signal -100; GFP signal change (wild-type ribosome), % (no concentration beside the values); 350,000 tested, 1.6% active;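 active = significant combined selectivity score with lowered wild-type GFP, culture density cut under 30%, mutant RFP and density less affected; inactive = any of these conditions unmet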; note: one replicate is shown; some compounds called inactive have numbers as strong as hits
FGF22 binding – FGF22 (human) thermal shift binding; calls only at 9.99 µM; AID 651658; 340,000 tested, 1.5% active; recombinant FGF22 thermal shift, SYPRO orange fluorescence; percent of sucrose octasulfate shift, DMSO zero; Q9HCT0;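 active = melting point raised past a set limit in the mean and every replicate; three in four hits are not shown here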
Target sequence (Q9HCT0 whole entry, looked up): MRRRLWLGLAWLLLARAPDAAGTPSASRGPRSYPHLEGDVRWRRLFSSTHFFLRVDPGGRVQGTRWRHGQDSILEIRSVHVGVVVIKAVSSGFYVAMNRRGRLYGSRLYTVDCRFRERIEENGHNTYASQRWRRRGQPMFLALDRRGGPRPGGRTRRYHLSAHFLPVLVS
rRNA inh HTS OD600 – further read-out of rRNA inh HTS, marked with its call; OD600 change, %; measured here: OD600 growth;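 optical density of the mix in the first replicate; 0 = DMSO median and -100 = no signal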
rRNA inh HTS RFP – also measured in rRNA inh HTS; calls as there; RFP signal change, %; measured here: RFP humanized mutant strains;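 first replicate; 0 = DMSO median and -100 = no signal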
Numbers without * were called inactive; i = inactive; & = joins results of further samples.

SMILES | AF4-AF9 inh | rRNA inh HTS | rRNA inh HTS OD600 | rRNA inh HTS RFP | FGF22 binding
CCOC(=O)C1CN(C(=O)OCC)CC1=NNC(N)=O (stereo not given) | -0.1 | 13.2 | 15.8 | 0.0 | i
CCNC(=O)[C@@H]1[C@@H](CO)[C@@H]2Cn3c(ccc(-c4ccncc4)c3=O)[C@@H]2N1Cc1ccc2c(c1)OCO2 | -1.9 | 0.9 | 0.4 | -0.9 | i
CO[C@H]1CN(C)C(=O)c2cc(NC(=O)C3CCC3)ccc2OC[C@H](C)N(C(=O)CN(C)C)C[C@H]1C | 0.1 | 0.5 | -3.5 | 1.9 | i
O=S(=O)(c1ccc(NC(=S)N2CCCCC2CO)cc1)N1CCOCC1 (stereo not given) | -6.4 | 4.0 | 8.4 | -0.3 | i
CN(C)CCCNC(=O)C[C@@H]1CC[C@H](NS(=O)(=O)c2ccc(F)cc2)[C@H](CO)O1 | -1.3 | 3.3 | 5.2 | -2.1 | i
COc1ccc(S(=O)(=O)Nc2ccc3c(c2)CC(=O)N([C@H](C)CO)C[C@H](C)[C@H](CN(C)CC2CC2)O3)cc1 | 0.3 | -0.1 | -5.3 | -0.4 | i
Cc1nc(C)c(C(=O)OCC(=O)N(C)c2ccccc2)s1 | 2.3 | 4.6 | 9.0 | -1.6 | i
O=C(Nc1ccc(C(F)(F)F)cc1)N[C@H]1CC[C@@H](CCNC(=O)c2ccccc2F)O[C@H]1CO | -0.4 | -5.9 | -15.8 | 5.0 | i
CN1C(=O)c2cc(NC(=O)c3cnccn3)ccc2OC[C@@H]2O[C@@H](CC(=O)NCC3CC3)CC[C@H]21 | -1.0 | 3.4 | 7.6 | -2.6 | i
O=C(NC1CCCC1)[C@H]1[C@H](CO)[C@H]2Cn3c(ccc(C4=CCCC4)c3=O)[C@@H]1N2CC1CC1 | -0.3 | 2.3 | 0.6 | -0.4 | i
O=S1(=O)c2ccc(Br)cc2N2CCC[C@@H]2CN1Cc1ccccc1 | -3.6 | 6.0 | -6.5 | -0.4 | i
CCc1ccc(NC(=O)CCCOc2cc(=O)n(C)c3ccccc23)cc1 | -0.5 | -7.9 | -1.7 | -5.4 | i
C[C@H](CO)N1C[C@H](C)[C@H](CN(C)Cc2ccc(Oc3ccccc3)cc2)Oc2c(NC(=O)c3nc4ccccc4s3)cccc2C1=O | -10.2 | -1.4 | -6.0 | 1.5 | i
C[C@H]1CN([C@@H](C)CO)C(=O)c2cc(NC(=O)Nc3cccc4ccccc34)ccc2O[C@H]1CN(C)Cc1ccc2c(c1)OCO2 | 1.1 | -19.8 | -44.0 | 30.5 | i
C[C@@H]1CN([C@H](C)CO)C(=O)c2cc(NC(=O)C3CCCCC3)ccc2O[C@@H](C)CCCCO[C@@H]1CN(C)CC1CCCCC1 | -6.6 | -6.9 | -24.9 | 18.4 | i
COc1ccc(NC(=O)N(C)C[C@@H]2OCCCC[C@H](C)Oc3ccc(NC(=O)C4CCCCC4)cc3C(=O)N([C@@H](C)CO)C[C@@H]2C)cc1 | -0.8 | -0.8 | 1.7 | 3.2 | i
Cc1cccc(S(=O)(=O)N2CCCCN3[C@H](CO)[C@H](c4ccc(-c5cccnc5)cc4)[C@H]3C2)c1 | 0.8 | -1.3 | -12.7 | 2.8 | i
Cc1ccc(S(=O)(=O)N2[C@H](c3ccc(Cl)cc3)CC(=O)[C@@H]3CN(S(=O)(=O)c4ccccc4C)[C@H](c4ccc(Cl)cc4)C[C@@H]32)cc1 | -2.7 | 6.9 | 8.8 | 0.8 | i
COc1ccc2c3c([nH]c2c1)[C@@H](CO)N(S(C)(=O)=O)CC31CN(C(=O)c2ccncc2)C1 | 1.2 | 2.3 | 5.8 | -5.0 | i
C[C@@H]1CN([C@@H](C)CO)C(=O)c2cccc(NC(=O)C3CCCCC3)c2O[C@H]1CN(C)C(=O)Nc1ccccc1 | -3.3 | 2.8 | 0.4 | -3.5 | i
COc1ccc(S(=O)(=O)Nc2ccc3c(c2)CC(=O)N([C@H](C)CO)C[C@@H](C)[C@H](CN(C)C(=O)NC(C)C)O3)cc1 | -6.5 | -0.7 | 0.0 | -2.2 | i
COc1ccc2c3c([nH]c2c1)[C@@H](CO)N(C(=O)Cc1ccccc1)CC31CCN(C)CC1 | 7.7 | 3.2 | 4.0 | 0.4 | i
COc1ccc(CNC(=O)C[C@@H]2C[C@H]3c4cc(NC(=O)C5CCC5)ccc4O[C@H]3[C@@H](CO)O2)cc1 | 1.5&-2.1 | 4.7&2.3 | -1.9&5.6 | -7.4&1.0 | i
C[C@H](CO)N1C[C@H](C)[C@H](CN(C)Cc2ccccn2)Oc2ncc(C#CCc3ccccc3)cc2C1=O | 8.0 | -0.1 | 7.3 | -1.2 | i
O=C([C@H]1[C@H](CO)[C@H]2Cn3c(ccc(C4=CCCC4)c3=O)[C@@H]1N2C(=O)c1ccccc1)N1CCOCC1 | -2.4 | 3.6 | 7.2 | -2.4 | i
C[C@@H]1CN([C@H](C)CO)C(=O)c2cccc(NC(=O)C3CC3)c2O[C@@H]1CN(C)Cc1ccc(C(=O)O)cc1 | 1.1 | 4.8 | 12.9 | -2.7 | i
COCC(=O)N(C)C[C@H]1Oc2ncc(Br)cc2C(=O)N([C@H](C)CO)C[C@H]1C | -0.7 | 3.4 | 11.5 | 0.0 | i
O=C(CCN1CCCCC1)N[C@@H]1CC[C@@H](CCn2cc(-c3ccccc3)nn2)O[C@@H]1CO | 0.5 | -0.1 | 4.4 | -0.2 | i
C[C@H](CO)N1C[C@H](C)[C@H](CN(C)Cc2ccc3c(c2)OCO3)Oc2ccc(NS(=O)(=O)c3ccc(Cl)cc3)cc2C1=O | 2.3 | 0.5 | -12.9 | 5.1 | i
Cc1ccccc1CN(C)C[C@@H]1OCc2cn(nn2)CCCC(=O)N([C@@H](C)CO)C[C@H]1C | -3.4 | 0.9 | 7.4 | -0.1 | i

For convenience, some entries already given.
SMILES | AF4-AF9 inh | rRNA inh HTS | rRNA inh HTS OD600 | rRNA inh HTS RFP | FGF22 binding
COc1ccc(NC(=O)N(C)C[C@@H]2OCCCC[C@H](C)Oc3ccc(NC(=O)C4CCCCC4)cc3C(=O)N([C@@H](C)CO)C[C@@H]2C)cc1 | -0.8 | -0.8 | 1.7 | 3.2 | i
Cc1cccc(S(=O)(=O)N2CCCCN3[C@H](CO)[C@H](c4ccc(-c5cccnc5)cc4)[C@H]3C2)c1 | 0.8 | -1.3 | -12.7 | 2.8 | i
Cc1ccc(S(=O)(=O)N2[C@H](c3ccc(Cl)cc3)CC(=O)[C@@H]3CN(S(=O)(=O)c4ccccc4C)[C@H](c4ccc(Cl)cc4)C[C@@H]32)cc1 | -2.7 | 6.9 | 8.8 | 0.8 | i
COc1ccc2c3c([nH]c2c1)[C@@H](CO)N(S(C)(=O)=O)CC31CN(C(=O)c2ccncc2)C1 | 1.2 | 2.3 | 5.8 | -5.0 | i
C[C@@H]1CN([C@@H](C)CO)C(=O)c2cccc(NC(=O)C3CCCCC3)c2O[C@H]1CN(C)C(=O)Nc1ccccc1 | -3.3 | 2.8 | 0.4 | -3.5 | i
COc1ccc(S(=O)(=O)Nc2ccc3c(c2)CC(=O)N([C@H](C)CO)C[C@@H](C)[C@H](CN(C)C(=O)NC(C)C)O3)cc1 | -6.5 | -0.7 | 0.0 | -2.2 | i
COc1ccc2c3c([nH]c2c1)[C@@H](CO)N(C(=O)Cc1ccccc1)CC31CCN(C)CC1 | 7.7 | 3.2 | 4.0 | 0.4 | i
COc1ccc(CNC(=O)C[C@@H]2C[C@H]3c4cc(NC(=O)C5CCC5)ccc4O[C@H]3[C@@H](CO)O2)cc1 | 1.5&-2.1 | 4.7&2.3 | -1.9&5.6 | -7.4&1.0 | i
C[C@H](CO)N1C[C@H](C)[C@H](CN(C)Cc2ccccn2)Oc2ncc(C#CCc3ccccc3)cc2C1=O | 8.0 | -0.1 | 7.3 | -1.2 | i
O=C([C@H]1[C@H](CO)[C@H]2Cn3c(ccc(C4=CCCC4)c3=O)[C@@H]1N2C(=O)c1ccccc1)N1CCOCC1 | -2.4 | 3.6 | 7.2 | -2.4 | i

New compounds follow.
SMILES | AF4-AF9 inh | rRNA inh HTS | rRNA inh HTS OD600 | rRNA inh HTS RFP | FGF22 binding
C[C@@H]1CN([C@@H](C)CO)C(=O)c2cccc(NC(=O)Nc3ccccc3)c2O[C@H]1CN(C)Cc1ccc(Cl)c(Cl)c1 | 2.6 | -2.2 | -10.6 | 0.9 | i
C[C@@H]1CN([C@H](C)CO)C(=O)Cc2cc(NC(=O)C3CC3)ccc2O[C@@H]1CN(C)CC1CC1 | -4.1 | 1.1 | -5.3 | -2.5 | i
Cc1noc(C)c1NC(=O)Nc1ccc2c(c1)CC(=O)N([C@@H](C)CO)C[C@H](C)[C@H](CN(C)C(=O)Nc1ccc(C(F)(F)F)cc1)O2 | -0.6 | 0.7 | -3.0 | 1.9 | i
O=C(COc1ccc(Cl)cc1Cl)NC(=O)NC1CCCC1 | -2.5 | -5.9 | -3.3 | 1.1 | i
COC(=O)C[C@@H]1CC[C@@H]2[C@H](COc3ccc(NC(=O)c4cccc(OC)c4)cc3C(=O)N2C)O1 | 0.3 | 2.2 | -0.7 | -0.5 | i
COc1ccc2c3c(n(C(=O)OC(C)(C)C)c2c1)C1CC=C(COC(C)=O)CN1CC3 (stereo not given) | 8.2 | -9.8 | -3.0 | 19.2 | i
O=C(Nc1ccc(-c2ccccc2)cc1)[C@@H]1[C@@H](CO)[C@@H]2Cn3c(cccc3=O)[C@H]1N2Cc1ccncc1 | 0.6 | -9.0 | -12.1 | 1.1 | i
O=S(=O)(c1ccc(F)cc1)N1CCCCN2[C@H](C1)[C@H](c1ccc(C3=CCCCC3)cc1)[C@@H]2CO | 2.6 | -0.7 | -4.0 | 1.4 | i
C[C@@H]1CN([C@H](C)CO)S(=O)(=O)c2ccc(C#CC(C)(C)O)cc2O[C@H]1CN(C)C(=O)CC1CC1 | -2.6 | 1.7 | 3.4 | -1.1 | i
CC(C)(C)S(=O)(=O)N1C[C@@H]2C(=C(CCO)C[C@@H]3C(=O)N(c4ccccc4)C(=O)[C@@H]32)[C@H]1CCO | -1.9 | -32.5 | -47.6 | -11.6 | i
CCCNC(=O)N[C@@H]1C=C[C@@H](CC(=O)NC2CCC2)O[C@H]1CO | -1.7 | 2.9 | 7.9 | -1.6 | i
CNC[C@@H]1Oc2ccc(NS(=O)(=O)c3cccs3)cc2CC(=O)N([C@@H](C)CO)C[C@H]1C | -1.7 | 4.5 | 16.4 | 1.3 | i
C[C@H](CO)N1C[C@H](C)[C@H](CN(C)C(=O)Nc2ccc(F)cc2)Oc2ccc(NS(=O)(=O)c3ccc(Cl)cc3)cc2CC1=O | 0.8 | 0.5 | -4.5 | -1.8 | i
Cc1noc(C)c1S(=O)(=O)N(C)C[C@H]1Oc2c(NS(=O)(=O)c3cn(C)cn3)cccc2C(=O)N([C@H](C)CO)C[C@H]1C | -13.3 | 3.3 | 3.5 | -2.4 | i
Cc1ccc(Cc2c(-c3ccc(Br)cc3)nc3ccc(Br)cn23)cc1 | 2.3 | -15.1 | -40.7 | 17.1 | i
C[C@H]1CCCCO[C@@H](CN(C)Cc2ccc(C(=O)O)cc2)[C@@H](C)CN([C@@H](C)CO)C(=O)c2cc(NC(=O)Nc3ccccc3)ccc2O1 | 3.2 | -2.9 | -5.4 | -3.3 | i
C[C@@H]1CCCCO[C@@H](CN(C)Cc2ccccc2)[C@@H](C)CN([C@@H](C)CO)C(=O)c2cc(NC(=O)Nc3ccc(F)cc3)ccc2O1 | 10.8 | -3.9 | -12.1 | 18.2 | i
O=C(C[C@H]1CC[C@@H]2[C@H](COC[C@@H](O)CN2S(=O)(=O)c2ccc(Cl)cc2)O1)N[C@H]1CCN(Cc2ccccc2)C1 | 1.9 | -1.0 | 0.1 | -2.3 | i
C[C@@H]1CN([C@@H](C)CO)C(=O)c2cccc(NC(=O)C3CCOCC3)c2O[C@@H]1CN(C)C(=O)Nc1ccc(F)cc1 | 3.0 | 1.6 | -0.5 | 0.2 | i
CO[C@@H](CN(C)C(=O)C1CC1)[C@@H](C)CN(C(=O)Nc1ccc(C(F)(F)F)cc1)[C@@H](C)CO | 0.6 | -60.8 | -77.0 | -16.7 | i
COc1ccc(NC(=O)N(C)C[C@H]2Oc3ncc(-c4ccc(C#N)cc4)cc3C(=O)N([C@@H](C)CO)C[C@@H]2C)cc1 | -2.6 | -5.0 | -10.3 | -0.6 | i
O=C(NCC1CCOCC1)c1cccc2c(-c3cccnc3)coc12 | -1.8 | 2.9 | 3.3 | -2.0 | i
C[C@H](CO)N1C[C@H](C)[C@H](CN(C)S(=O)(=O)c2ccc(F)cc2)Oc2cc(C#Cc3ccc(F)cc3)ccc2S1(=O)=O | -2.6 | -1.2 | 2.1 | -6.2 | i
COc1cccc(-c2ccc3c(c2)[C@@H]2[C@@H](CCN2C(=O)CN(C)C)[C@H](CO)N3C)c1 | 12.8 | 2.0 | 4.1 | 2.0 | i
CCc1nc2ccc(C(=O)N(C)CCN(C)C)cn2c1N(C)CCC(C)C | 1.8 | 4.9 | 5.8 | 2.2 | i
CCc1nc2ccc(C(=O)NCc3ccc(OC)cc3)cn2c1N(C)C(=O)Cc1ccccc1 | -1.3 | -3.5 | -4.5 | -0.9 | i

Only part of the results is shown. The share of hits here may be higher or lower than overall.
